Assay outcomes (PubChem)
miR-21 reporter – raises the signal of a miR-21 reporter; Potency, µM (highest dose often 38.3 µM), for inactives: at the top dose reporter change, positive = more light; HeLa miR-21 FLuc reporter, luciferase, 48 h; 340,000 tested, under 10 active; active = well fitted rising curve with a large enough effect; inconclusive = small, poorly fitted or top-dose-only effect; inactive = no such curve, though single readings can be large or run the other way;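 further: % of control where 0% means no effect; miR-21 action dims this reporter so a rising signal means less miR-21 action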
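Luminescence from a firefly luciferase reporter carrying a miR-21 binding site downstream, stably expressed under a CMV promoter in HeLa cells that make miR-21 endogenously, reports miRNA modulation after 48 h compound exposure up to approximately 40uM final.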
Rango release inh – inhibition of RanGTP-driven Rango-importin beta dissociation | O95149+P62826 | Biochemical FRET Rango-importin beta, RanGTP-induced dissociation | Potency, µM (series often up to 46.1 µM), for inactives: top-dose activity change, negative = inhibition | actives 0.071% (n = 340,000) | AID 540253; active means falling FRET ratio curve, often poorly fitted, with flat reads before Ran was added; inconclusive means other falling curves, or compound fluorescence or quenching; inactive means flat or rising ratio curve;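 further: potency means the concentration at half of the fitted maximal effect; % of control where 0% means no effect; nearly all actives have a fitted effect of over 45% in size; -100% = wells without RanGTP and RCC1; the record marks most hits as doubtful in a second field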
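Rango FRET biosensor (snurportin-1 IBB flanked by N-terminal EYFP and C-terminal CFP10) at 0.1 uM, with 0.25 uM importin beta in PBS, 1mM DTT, 0.02% Tween-20, 0.1% BSA. 0.6 uM Ran, 2mM GTP and 0.2 uM RCC1 were then added for 45 min at room temperature. Inhibition read as loss of FRET rise.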
GLA inh pH 4.5 – blocks human alpha-galactosidase A at pH 4.5. 230,000 tested, under 10 active. P06280. activity change, negative = inhibition, % at 105 µM. purified enzyme, 4-MU-alpha-Gal fluorescence, pH 4.5; inconclusive = small, poorly fitted or top-dose-only inhibition, or a rising curve; inactive = flat fitted curve, though single readings scatter; no compound was filed as active;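 further: 0% = full activity with enzyme and -100% = basal without enzyme; dose as in the result columns while the protocol names 77 µM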
Target sequence (P06280 whole entry, looked up): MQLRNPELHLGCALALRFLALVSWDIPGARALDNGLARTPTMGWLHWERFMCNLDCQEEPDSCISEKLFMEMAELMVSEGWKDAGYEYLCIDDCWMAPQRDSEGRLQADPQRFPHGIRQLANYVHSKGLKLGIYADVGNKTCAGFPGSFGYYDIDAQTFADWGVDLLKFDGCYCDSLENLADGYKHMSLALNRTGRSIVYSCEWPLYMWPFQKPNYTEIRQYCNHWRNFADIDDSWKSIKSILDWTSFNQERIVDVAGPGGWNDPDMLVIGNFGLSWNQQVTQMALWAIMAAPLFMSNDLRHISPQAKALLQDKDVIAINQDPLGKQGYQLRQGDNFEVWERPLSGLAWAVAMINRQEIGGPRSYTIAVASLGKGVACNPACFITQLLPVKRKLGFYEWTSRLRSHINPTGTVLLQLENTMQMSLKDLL
Rango complex inh – prevents formation of the Rango-importin beta complex; Potency, µM (series often up to 92.2 µM), for inactives: at the top dose inhibition of complex formation; actives 0.031% (n = 340,000); Rango CFP/YFP FRET sensor + importin beta, 45 min; active = rising FRET ratio curve, often small or poorly fitted; inconclusive = mostly compound fluorescence or quenching in the first reads; inactive = flat curves in all reads;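 further: potency means the concentration at half of the fitted maximal effect; 0% = DMSO wells and 100% = buffer wells lacking importin beta; nearly all actives have a fitted effect of over 15% in size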
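FRET biosensor (snurportin 1 IBB flanked by EYFP and cerulean), 50 nM, with compound 5 min, then 0.125 microM importin beta in PBS, 1 mM DTT, 0.02% Tween-20, 0.1% BSA. CFP/YFP ratio read after 45 min at room temperature; pre-read flags interference.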
Numbers without * were called inactive; ? = inconclusive; . = not tested or not shown. Only part of the results is shown, so the mix of outcomes need not match the whole.

SMILES | miR-21 reporter | Rango release inh | GLA inh pH 4.5 | Rango complex inh
CC(=O)N(CC(=O)N(CC(=O)O)c1ccc(Cl)cc1)c1ccc(Cl)cc1 | . | -9% | . | 1.4%
Cc1ccc(S(=O)(=O)NCc2cccnc2)c(C)c1 | -5% | -12% | . | -0.7%
Cc1ccc(-c2nc(CN3CCCCC3)cc(CN3CCCCC3)c2O)cc1 | -9% | -2% | 6 | -4.7%
COC(=O)CCC(=O)OC1(C)C(=O)C2=CN(C3CC3)C(c3ccc(OC)cc3)=CC2=C(Br)C1=O (stereo not given) | . | ? | 1 | ?
N=c1c(C(=O)NCc2ccc(F)cc2)cc2c(=O)n3ccccc3nc2n1CCCN1CCOCC1 | 0% | ? | 4 | ?
CCCn1c(SCC#N)nc2c(c1=O)C1(CCCC1)Cc1ccccc1-2 | 6% | -3% | 0 | -0.5%
Cc1ccc(NC(=O)c2ccc3nc[nH]c3c2)nc1 | -4% | -6% | . | -0.1%
Cc1ccc(C(=O)CCC(=O)Nc2ncccc2O)cc1 | . | 7% | . | ?
CC1C(=O)N2CCCc3cc(NC(=O)C(=O)NCCc4ccc(F)cc4)cc1c32 (stereo not given) | . | 16% | . | -1.4%
O=C(Nc1nccs1)c1ccc(CSc2nnnn2-c2ccccc2)cc1 | -2% | 6% | -4 | -0.3%
CCCNc1ccc(S(=O)(=O)N(C(C)C)C(C)C)cn1 | 0% | 0% | -2 | -2.4%
O=c1oc2ccccc2cc1NCc1ccccc1O | -81% | -14% | 9 | -4.4%
CCc1nnc(NC(=O)C2CCCN(C(=O)c3ccc(Cl)cc3)C2)s1 (stereo not given) | . | 7% | . | 5.6%
O=C(N/N=C/c1ccco1)c1ccc(Br)o1 | -13% | 3% | 2 | -0.5%
COc1ccc(Nc2nc(NCc3ccco3)nc(N)c2[N+](=O)[O-])cc1 | -10% | 26% | -5 | -0.7%

Random excerpt: 2 compounds from above.
SMILES | miR-21 reporter | Rango release inh | GLA inh pH 4.5 | Rango complex inh
CC(=O)N(CC(=O)N(CC(=O)O)c1ccc(Cl)cc1)c1ccc(Cl)cc1 | . | -9% | . | 1.4%
O=c1oc2ccccc2cc1NCc1ccccc1O | -81% | -14% | 9 | -4.4%

A different layout for 4 compounds above:
O=C(Nc1nccs1)c1ccc(CSc2nnnn2-c2ccccc2)cc1
  miR-21 reporter: -2%
  Rango release inh: 6%
  GLA inh pH 4.5: -4
  Rango complex inh: -0.3%
CCCNc1ccc(S(=O)(=O)N(C(C)C)C(C)C)cn1
  miR-21 reporter: 0%
  Rango release inh: 0%
  GLA inh pH 4.5: -2
  Rango complex inh: -2.4%
O=c1oc2ccccc2cc1NCc1ccccc1O
  miR-21 reporter: -81%
  Rango release inh: -14%
  GLA inh pH 4.5: 9
  Rango complex inh: -4.4%
CCc1nnc(NC(=O)C2CCCN(C(=O)c3ccc(Cl)cc3)C2)s1 (stereo not given)
  miR-21 reporter: .
  Rango release inh: 7%
  GLA inh pH 4.5: .
  Rango complex inh: 5.6%

Additional records
SMILES | miR-21 reporter | Rango release inh | GLA inh pH 4.5 | Rango complex inh
CCOC(=O)N1CCC(=NNc2nc3ccccc3s2)CC1 | -42% | 21% | -22 | 1.1%
CCc1ccc(NC(=O)CS(=O)CC(=O)N2CCN(c3ccccc3F)CC2)cc1 (stereo not given) | 4% | -2% | . | -0.1%
Cc1c(Cl)ccc(S(=O)(=O)Nc2cccnc2)c1Cl | -1% | -19% | . | -3.5%
Cc1cccc(-c2nc(CN3CCCC(C(=O)NC4CCCCC4)C3)c(C)o2)c1 (stereo not given) | 9% | 16% | 3 | -5.0%
O=C(CSc1ncccc1C(=O)O)c1cccc(C(F)(F)F)c1 | -45% | -7% | 8 | -2.2%
O=C(Nc1ccccc1N1CCCC1)C1CC(=O)N(Cc2ccccc2)C1 (stereo not given) | . | 3% | . | 0.7%
COc1ccc(/C=N/NC(=O)c2cccc([N+](=O)[O-])c2)cc1OC | 0% | -5% | 5 | 3.7%
CSC1=N/C(=C\c2ccc(C)o2)C(=O)S1 | -3% | -1% | -13 | -4.4%
C=CCn1c(=N)n(CC(=O)c2ccc(Br)s2)c2ccccc21 | 4% | 11% | 4 | 2.8%
Cc1noc(C)c1C(=O)OCC(=O)Nc1ncc(Cl)c(C)c1Cl | . | 0% | . | -0.5%
Cc1ccc(N2CC(c3nc4ccccc4[nH]3)CC2=O)c(C)c1 (stereo not given) | -1% | 9% | 2 | 4.8%
COc1ccc(CNC(=O)C(c2cccc(C)c2)N(C(=O)c2csnn2)C2CC2)cc1 (stereo not given) | 15% | 16% | . | -4.3%
COc1ccc(NC(=O)C2CCCN2C(=O)OCc2ccccc2)cc1 (stereo not given) | 1% | -9% | 8 | 0.1%
Cc1csc(=O)n1CC(=O)OCC(=O)NNC(=O)c1ccc(Cl)cc1 | . | -4% | . | -2.6%
CC(C)CCNC(=O)C(c1ccc(O)cc1)N(Cc1ccco1)C(=O)CCC(=O)Nc1nccs1 (stereo not given) | 6% | 0% | . | 2.1%
CN(C)c1ccc(C(=O)N2CCNC(=O)C2CC(=O)Nc2ccc(F)cc2)cc1 (stereo not given) | 0% | -12% | . | 2.7%
CCN(CC)S(=O)(=O)c1cccc2c(N(C)C)cccc12 | -2% | -2% | 1 | ?
O=C(N[C@@H](Cc1ccc(O)cc1)C(=O)O)C(c1ccccc1)c1ccccc1 | 0% | -4% | -3 | -0.6%
CC(CCc1ccccc1)NC(=O)COC(=O)c1ccccc1O (stereo not given) | 1% | -4% | 9 | -2.5%
O=c1cc(-c2ccccc2F)nc(-c2ccccc2F)o1 | -9% | -4% | 2 | -2.9%
CCCc1ccc2oc(C(=O)N(Cc3nccn3C)C(C)C)c(C)c2c1 | ? | ? | . | -0.2%
COc1ccc(CCN(C)C(=O)CSc2ncnc3sccc23)cc1OC | -4% | 3% | 3 | ?
CCOC(=O)Nc1cccc2c1-c1ccc([N+](=O)[O-])cc1C2=O | . | 2% | . | 1.8%
O=C(NCc1ccc2c(c1)OCO2)C(=O)NCC1CCCO1 (stereo not given) | -5% | 31% | 3 | -0.4%
COc1cccc(/C=N/NC(=O)c2c(-c3ccccc3)noc2C)c1 | -3% | -1% | 1 | -1.9%
O=C(Nc1nccs1)c1csc2c1CCCC2 | -44% | -8% | 7 | 1.7%
Cc1cc(=S)cc(C)n1CCCO | -3% | 1% | 4 | 0.1%
O=C(NCc1ccccc1)C(c1ccco1)N(C(=O)c1csnn1)c1ccccc1 (stereo not given) | 0% | 2% | . | 0.8%
Cc1nn(C(C)C(=O)NCc2ccccc2F)c(=O)c2nn(-c3ccccc3)c(C)c12 (stereo not given) | -6% | -4% | . | -1.4%
COc1ccc(-c2noc(CCCC(=O)NC3CCCC3)n2)cc1OC | 5% | 6% | . | -1.9%
COc1ccccc1NC(=O)CSc1ccc2nnc(-c3cccnc3)n2n1 | -8% | -16% | 4 | -4.2%
O=C(NCc1cc([N+](=O)[O-])ccc1O)c1cc(-c2ccncc2)nc2ccccc12 | 0% | -6% | . | -4.1%
Cc1cc(C)n(CC(O)COc2c(C)cccc2C)n1 (stereo not given) | -11% | -15% | 8 | -0.7%
O=C(O)CCn1c(SCCOc2ccccc2)nc2ccccc21 | -16% | 5% | . | 0.5%
CC1(C)Cc2ccccc2C(C(Cc2ccccc2)C(N)=O)=N1 (stereo not given) | -1% | 13% | 1 | -3.5%
N#Cc1ccc(CN2CCN(C(=O)CCNS(=O)(=O)c3ccc(F)c(Cl)c3)CC2)cc1 | . | -7% | . | 1.7%
CCOc1cc(C(=O)OCC(=O)c2cc(C)n(CC3CCCO3)c2C)ccc1OCC(=O)N1CCOCC1 (stereo not given) | -26% | ? | 2 | 6.6%
O=C1NC[C@H](CC2CCCCC2)N(CC2CCCCC2)C1=O | . | -11% | . | -0.2%
CCOC(=O)N1CCN(CC(O)c2c[nH]c3ccccc23)CC1 (stereo not given) | -1% | -11% | . | 6.8%
CC1(C)CC[C@]2(C(=O)O)CC[C@]3(C)C(=CC[C@@H]4[C@@]5(C)CC[C@H](O)C(C)(C)[C@@H]5CC[C@]43C)[C@@H]2C1 | 6% | -17% | -2 | -1.7%
c1csc(CNc2nc(-c3cccs3)nc3ccccc23)c1 | -15% | -1% | -3 | 1.8%
CCC(CC)C(=O)Nc1ccccc1NC(C)=O | 2% | -14% | -1 | 0.6%
Cc1noc(C(=O)Nc2cccc(O)c2)c1Cl | -28% | -1% | 2 | 0.7%
O=C(Cc1ccc(Br)cc1)N1CCCCCC1 | -51% | 13% | 5 | 1.4%
O=C1CCC/C=C\C[C@@H](CC(=O)N(CCO)Cc2ccccc2)C(=O)N[C@H](Cc2c[nH]c3ccccc23)CO1 | . | 5% | . | 2.1%
CC(=O)N1CCc2cc(S(=O)(=O)NCCC3=CCCCC3)ccc21 | . | 0% | . | 3.8%
O=C(NC1CC2CCCC(C1)N2C(=O)Nc1ccccc1Cl)C1CC1 (stereo not given) | 1% | 2% | . | 0.1%
CCCCn1c(N)c(N(C)C(=O)c2ccccc2Oc2ccccc2)c(=O)[nH]c1=O | . | -13% | . | 3.2%
CCC(=O)N1CCc2cc(S(=O)(=O)N(C)c3ccc(OC)cc3OC)ccc21 | 3% | -4% | . | -0.3%
COCCC(=O)N1CCC(Oc2ccc(C(=O)N3CCCCCCC3)cc2)CC1 | -10% | 10% | . | 0.7%
Cc1nc2ccccc2nc1N/N=C/c1ccc(O)cc1O | -10% | ? | -6 | -2.0%
O=C(NCCc1c[nH]c2ccccc12)Nc1ccccc1 | -5% | -5% | -2 | -2.8%
CN(C)c1ccc(C=NNC(=O)c2cccc3ccccc23)c(Cl)c1 | . | ? | . | ?
O=c1[nH]nc(CSCc2ccccc2Cl)[nH]1 | -6% | 18% | 7 | 2.1%
c1ccc(-c2nnc(CN3CCC4(CC3)OCCO4)o2)cc1 | -22% | -3% | -26 | -0.6%
CCc1c(C)sc(NC(=O)CCc2ccc(OC)cc2)c1C(N)=O | 1% | ? | 2 | ?
Cc1cc(C)nc(N2CCC(C(=O)Nc3ccc4c(c3)OCO4)CC2)n1 | -4% | -8% | 1 | -1.6%
COc1ccc(Br)c(C(=O)OCC(=O)N2CCC(Cc3ccccc3)CC2)c1 | . | 4% | . | ?
CCC(=O)Nc1sc2c(c1C(=O)N(C)C)CCCCC2 | -1% | -10% | 3 | -2.3%
NC(=O)NC(=O)C(c1ccccc1)N1CCN(S(=O)(=O)Cc2ccccc2)CC1 (stereo not given) | . | 9% | . | 0.7%

Following part.
SMILES | miR-21 reporter | Rango release inh | GLA inh pH 4.5 | Rango complex inh
COC(=O)[C@H](NCc1ccc(OC)c(B(O)O)c1)C(C)C | . | 18% | . | -0.6%
O=S(=O)(Cc1nc2ccccc2s1)c1ccccc1 | -45% | 8% | 1 | 0.2%
CC(C)(C)OC(=O)NCc1ccc(CNC(=O)c2[nH]cnc2C(=O)N[C@@H](Cc2ccccc2)C(=O)OCc2ccccc2)cc1 | 7% | -18% | . | 4.9%
O=C(COC(=O)c1cc([N+](=O)[O-])ccc1N1CCOCC1)c1ccccc1 | . | 4% | . | 3.7%
O=C(/C=C/c1cccc(Br)c1)c1ccc2c(c1)OCO2 | 0% | -1% | . | 0.5%
CCOc1ncccc1C(=O)N(CCC(C)C)c1c(N)n(Cc2ccccc2)c(=O)[nH]c1=O | . | -7% | . | 5.4%
CCN(Cc1ccccc1)S(=O)(=O)c1c(C)n(C)c(=O)n(C)c1=O | . | -3% | . | 4.0%
Cc1cc(C(=O)CN2C(=O)NC3(CCCc4ccccc43)C2=O)c(C)n1Cc1cccs1 (stereo not given) | -22% | 3% | 1 | -4.5%
CC(C)c1ccc2oc(=O)cc(CN3CCOCC3)c2c1 | -17% | 9% | . | -0.4%
COc1ccc(CN2CCCC(CNC(=O)c3ccc(F)cc3)C2)cc1OC (stereo not given) | -4% | -19% | 3 | ?
Cc1ccc(C2=NS(=O)(=O)N(C)C(C(=O)NCc3ccco3)=C2)cc1 | 0% | -10% | . | -0.7%
CCOc1ccc2nc(NCCCNS(=O)(=O)c3ccccc3)c(C#N)cc2c1 | 1% | ? | -4 | ?
